Source: PubChem BioAssay (National Center for Advancing Translational Sciences (NCATS))
TRPML1 agonist: agonists of human TRPML1 channel | Q9GZU1 | TRPML1-expressing cells, Ca2+ dye fluorescence, FDSS; host cell line not named in the record; reference of the full effect not given here | activation, % (test concentration not listed) | hit rate 0.12% among 410,000; in the data active = activation above about 50%; inconclusive = about 30% to 50%; inactive = below about 30%; note: 0% is about no effect; the text of the record puts the active cut at 80%
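In this qHTS format, compounds were pin-transferred onto Ca8-dye-loaded TRPML1-DL cells induced with Tet overnight, and intracellular Ca2+ fluorescence was recorded kinetically for 110 s after a 10 s baseline. A subsequent 4uM final 54-4 (EC80) addition followed by a second 110 s read served as the antagonist phase.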
D2 ag: agonists of human D2 dopamine receptor (beta-arrestin). hit rate 0.084% among 360,000. activation, % (no concentration beside the values). DiscoveRx PathHunter D2 beta-arrestin, luminescence, 90 min; 100% = 57 uM dopamine signal. P14416; in the data active = activation above about 40%; inconclusive = about 15% to 40%; inactive = below about 15%; note: compound concentration not given in the record; the text of the record calls up to 30% inactive
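Agonist mode: compounds alone added to overnight-plated D2 PathHunter cells for 90 min at 37 C, with 57 uM final dopamine (EC100) defining full response. Beta-arrestin recruitment detected by chemiluminescent reagent, read after 1 h at ambient temperature.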
CtBP-E1A inh: inhibitors of CtBP/E1A interaction. AlphaScreen GST-E1A/His-CtBP binding, 1536-well; hits give low values; control for the full effect not named in the record. activity change, % (concentration not given with the values). hit rate 0.49% among 340,000. AID 651724; in the data active means activity change below about -65%; inconclusive means about -30% to -65%; inactive means above about -30%; note: % is set by controls: 0 for no effect and ±100 for the full control effect
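Protein mix (5X: 125 nM each GST-E1A, His-CtBP) was incubated with pinned compound 2 h at 37 deg C in dark, in 50 mM Tris pH 8.0 buffer with 300 mM NaCl. Glutathione donor and nickel acceptor beads followed; AlphaScreen signal read after 1 h.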
Six1-Eya2 blk: inhibitors of human Six1/Eya2 interaction; Q15475+O00167; AlphaScreen GST-Six1/His-Eya2 binding, biochemical; hits give low values; control for the full effect not named in the record; activity change, % (no concentration beside the values); hit rate 0.56% among 360,000; AID 651725; in the data active = activity change below about -65%; inconclusive = about -30% to -65%; inactive = above about -30%; note: % is set by controls: 0 for no effect and ±100 for the full control effect; compound concentration not given in the record
Target sequence (O00167 whole entry, looked up): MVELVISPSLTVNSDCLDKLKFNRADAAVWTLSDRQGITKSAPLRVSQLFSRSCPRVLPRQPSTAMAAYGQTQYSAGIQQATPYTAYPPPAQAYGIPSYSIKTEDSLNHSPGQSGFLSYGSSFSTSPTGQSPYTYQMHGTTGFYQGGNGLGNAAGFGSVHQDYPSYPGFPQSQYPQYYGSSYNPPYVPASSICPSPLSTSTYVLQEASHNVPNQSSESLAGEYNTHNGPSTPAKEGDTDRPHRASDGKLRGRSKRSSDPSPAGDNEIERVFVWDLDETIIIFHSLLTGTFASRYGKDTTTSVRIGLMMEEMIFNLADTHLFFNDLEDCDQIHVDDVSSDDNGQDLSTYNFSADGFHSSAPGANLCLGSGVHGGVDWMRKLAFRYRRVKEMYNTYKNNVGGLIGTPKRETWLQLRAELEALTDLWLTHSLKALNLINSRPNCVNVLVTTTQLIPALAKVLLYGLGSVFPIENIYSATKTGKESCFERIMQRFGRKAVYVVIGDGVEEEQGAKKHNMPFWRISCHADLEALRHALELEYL
Target sequence (Q15475 whole entry, looked up): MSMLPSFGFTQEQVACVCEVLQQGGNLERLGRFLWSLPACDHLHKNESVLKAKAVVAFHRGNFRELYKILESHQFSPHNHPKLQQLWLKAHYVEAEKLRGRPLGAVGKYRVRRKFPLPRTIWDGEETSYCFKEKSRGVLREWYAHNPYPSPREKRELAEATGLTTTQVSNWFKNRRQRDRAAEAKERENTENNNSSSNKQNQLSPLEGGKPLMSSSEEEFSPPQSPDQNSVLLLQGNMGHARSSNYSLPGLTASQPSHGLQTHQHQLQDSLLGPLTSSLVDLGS
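Compounds are tested against tagged Six1 and Eya2 proteins bridged by glutathione donor and nickel acceptor beads; after a one-hour incubation at 37 °C without light, AlphaScreen emission is recorded.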
PINK1 expr mod: PINK1 expression modulation. Potency, µM (series often up to 76.6 µM), inactives show at the highest dose activation (PINK1 increase), actives largely listed as activators. hit rate 0.2% among 410,000. PINK1 immunofluorescence, high-content cytometry, 24 h; active = well fitted activation curve with a large enough effect; inconclusive = small, poorly fitted or top-dose-only effect; inactive = flat fitted curve, though single readings scatter; cell line not stated here;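 note: potency is the fitted concentration of half-maximal effect; % of control where 0% means no effect; nearly all actives have a fitted effect of over 65% in size; a mitochondrial uncoupler was the plate control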
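Cells are seeded, rested 12 hours, then given compound at five concentrations or DMSO for 24 hours. After fixation, blocking and antibody staining, PINK1 amount and mitochondrial localization are scored; CCCP serves as control.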
TRPML1 blocker: inhibitors of human TRPML1 channel. activity change, negative = inhibition, % (no concentration beside the values). Q9GZU1. hit rate 0.02% among 390,000. TRPML1-inducible cells, Ca2+ dye fluorescence, FDSS; hits give low values; inhibition of EC80 agonist-evoked calcium signal; in the data active means activity change below about -50%; inconclusive means about -30% to -50%; inactive means above about -30%;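 note: stimulus is agonist 54-4 at its EC80 concentration; % is set by controls: 0 for no effect and ±100 for the full control effect; compound concentration not given in the record; the text of the record puts the active cut at -80%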
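Calcium fluorescence in TRPML1-DL cells induced overnight with Tet: a 110 s read after compound pin addition, then a 110 s antagonist read after challenge with 54-4 at 4 uM final (EC80).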
An asterisk follows results filed as active; ? = inconclusive; nt = no result given; & = joins results of further samples; [ ] = another dose, or the depositor's remark.

SMILES	TRPML1 agonist	D2 ag	CtBP-E1A inh	Six1-Eya2 blk	PINK1 expr mod	TRPML1 blocker
Cc1cc([N+](=O)[O-])ccc1NC(=O)c1csc(C)c1C	1.4	-4.7	-5	-1	-1.3%	18
CN1C(=O)c2cccc3c(Br)ccc(c23)C1=O	-0.5	-2.9	5	0	-3.3%	-6
Cc1cccc(C2NC(c3cccc(C)c3)C(C)C(=O)C2C)c1 (centres undefined)	4.5	-6.2	nt	16	9.8%	5
Cc1ccc2oc(-c3cccc(NC(=O)/C=C/c4cccc([N+](=O)[O-])c4)c3C)nc2c1	-0.1	-2.3	-3	-3	3.6%	14
Cc1c(C(=O)Nc2cccc(-c3nc4ccccc4s3)c2)oc2ccccc12	1.6	nt	nt	nt	-0.3%	-7
Cc1ccc(S(=O)(=O)N2CCN(C(=O)c3cc(C4CC4)nn3-c3ccccc3)CC2)cc1	0.9	-2.1	-2	3	2.3%	18
CCCN(CC(=O)Nc1ccccc1C)C(=O)COC(=O)CSc1ccc([N+](=O)[O-])cc1	2.4	2.4	-6	-4	2.5%	9
O=C(CSc1nc(-c2ccco2)cc(C(F)(F)F)n1)Nc1ccc2c(c1)CCC2	0.8	1.0	-4	7	9.0%	-4
COC(=O)N1[C@H](C)C=C[C@]1(Cc1ccccc1)C(=O)O	-1.0	-0.3	4	-3	-1.2%	-5
C=CCN1C(=O)C(CC(=O)NCC)SC1=Nc1cc(Cl)ccc1Cl (centres undefined)	0.9	7.5	3	4	3.3%	-9
C=CCOc1ccc2ccccc2c1CNc1ncn[nH]1	0.7	-0.6	1	-1	8.7%[38.3 µM]	-3
CSc1ccccc1NC(=O)CN1C(=O)C2CC=CCC2C1=O (centres undefined)	-0.6	-2.7	7	-3	0.0%	9
CC(=O)Nc1ccc(SC[C@H](Cc2ccccc2)N2CCN(CCc3ccccc3)CCC2=O)cc1	0.0	0.8	-2	-7	-0.7%	-6
CCC(C(=O)Nc1ccccc1C(=O)N1CCOCC1)N1C(=O)c2ccccc2C1=O (centres undefined)	-0.6	-0.5	3	2	4.5%[38.3 µM]	-7
CCOc1ccc(NC(=O)c2cc(=O)[nH]c3ccccc23)cc1	-0.1	5.0	1	-5	5.0%	-21
CC(C)C(=O)Nc1cccc(C(=O)Nc2ccc(S(=O)(=O)Nc3nccs3)cc2)c1	-0.5	-5.9	-3	0	-2.3%	-2
CN(C(=O)COC(=O)C1CCN(S(=O)(=O)c2ccc3c(c2)OCCO3)CC1)C1CCCCC1	1.5	-2.6	7	-2	0.7%	-1
COc1ccc(Nc2nc3ccccc3n3nnnc23)cc1	2.8	-0.8	-2	-1	5.7%[38.3 µM]	10
CC(=O)N/C(=C\c1ccccc1)C(=O)OCC(=O)Nc1cc(S(=O)(=O)N(C)C)ccc1Cl	-0.2	1.5	?	-3	-4.2%	-29
Cc1ccc(NC(=S)NCC2CCCO2)cc1C (centres undefined)	-0.3	-4.5	3	-3	1.1%	-14

An excerpt from above, limited to TRPML1 blocker.
SMILES,TRPML1 blocker
CSc1ccccc1NC(=O)CN1C(=O)C2CC=CCC2C1=O (centres undefined),9
CC(=O)Nc1ccc(SC[C@H](Cc2ccccc2)N2CCN(CCc3ccccc3)CCC2=O)cc1,-6
CCC(C(=O)Nc1ccccc1C(=O)N1CCOCC1)N1C(=O)c2ccccc2C1=O (centres undefined),-7

Next structures follow.
SMILES	TRPML1 agonist	D2 ag	CtBP-E1A inh	Six1-Eya2 blk	PINK1 expr mod	TRPML1 blocker
Cc1[nH]c2ccc(F)cc2c1CCN(Cc1ccco1)C(=S)NC(C)(C)C	-0.5	-0.6	-9	-23	1.1%	27
Cc1ccc(NC(=O)Cc2nnc(SCC(=O)NC3=NCCS3)n2C)cc1	-0.4	-2.2	0	-2	0.5%	17
CC(=O)OC1CCC2C3CCC4OC(=O)CCC4C3CCC12C (centres undefined)	-0.6	2.2	4	-4	5.0%	3
CC(=O)c1ccc(OCC(=O)OCC(=O)Nc2sccc2C(N)=O)cc1	-0.8	-2.2	nt	-1	1.1%	13
CN(C(=O)CN(c1ccccc1)S(=O)(=O)c1ccc(F)cc1)C1CCS(=O)(=O)C1 (centres undefined)	-0.9	-6.2	nt	4	-1.1%	-11
O=C1Nc2ccc([N+](=O)[O-])cc2OC1CCN1CCOCC1 (centres undefined)	-0.5	-3.1	-2	-1	0.5%	0
Cc1ccc2cccc(NS(=O)(=O)c3ccccc3)c2n1	1.5	-4.3	-2	-1	8.8%	18
CCCN1CCN(S(=O)(=O)c2ccc(OC)c(Br)c2)CC1	0.4	15	-2	-19	4.4%	-21
CCOc1ccc(C2C(C(=O)c3ccco3)=C(O)C(=O)N2CCN2CCOCC2)cc1OCC (centres undefined)	-0.1	-4.1	-5	-2	-1.7%	4
Cc1ccc(Nc2nc(/N=C/NO)n[nH]2)cc1C	-0.8	1.8	2	-4	-1.2%	11
C/C(=N/OCO/N=C(\C)c1ccc(F)cc1F)c1ccc(F)cc1F	1.1	-0.3	-19	10	5.4%	-13
COCCNC(=O)CSc1nc(-c2ccc(C)cc2)[nH]c1-c1ccc(OC)cc1	-0.3	nt	nt	nt	0.4%	3
Cc1c(C(=O)O)sc2nc(CSc3ncc(C(F)(F)F)cc3Cl)[nH]c(=O)c12	-0.1	2.6	17	3	-0.2%	-16
O=C(CCn1c(=O)c2sccc2n(CC(=O)OCc2ccccc2)c1=O)NCc1ccccc1	9.1	3.5	4	7	-2.4%	-5
CC(C(=O)N1CCCC1)N1CCN(c2ccccc2O)CC1 (centres undefined)	1.0	-0.8	8	8	0.0%	-8
Nc1nc2n(n1)C(c1cccc(Br)c1)CC(c1ccc(F)cc1)N2 (centres undefined)	5.6	-18	5	-3	0.0%	6
CCOC(=O)c1ccc(-n2ccnc2)c(NC(=O)c2cccc(Br)c2)c1	-0.5	-2.3	-2	1	-1.3%	-8
Cc1ccc(Nc2nc3ccccc3c(=O)[nH]2)cc1C	4.8	2.4	5	16	-2.4%	-7
CCN(CC)CCN(C)C(=O)c1[nH]c(C(F)(F)F)nc1-c1ccccc1	0.0	-5.0	-13	15	-0.7%	nt
Nc1nc(NC(=O)Cc2ccccc2)nn1-c1ccccc1	-0.4	-4.6	-9	-10	0.0%	0

The closing three compounds of the section above lead into the next:
SMILES	TRPML1 agonist	D2 ag	CtBP-E1A inh	Six1-Eya2 blk	PINK1 expr mod	TRPML1 blocker
Cc1ccc(Nc2nc3ccccc3c(=O)[nH]2)cc1C	4.8	2.4	5	16	-2.4%	-7
CCN(CC)CCN(C)C(=O)c1[nH]c(C(F)(F)F)nc1-c1ccccc1	0.0	-5.0	-13	15	-0.7%	nt
Nc1nc(NC(=O)Cc2ccccc2)nn1-c1ccccc1	-0.4	-4.6	-9	-10	0.0%	0
Cc1ccccc1NC(=O)c1ccc(Cl)c(S(=O)(=O)N2CCCCCC2)c1	4.1	nt	nt	nt	-0.6%	78
Cc1ccc(NC(=S)Nc2cc(C)on2)cc1	1.6	3.7	2	-1	3.9%	-6
Cc1cccc(Nc2nnc(-c3ccc(C)c(S(=O)(=O)N4CCN(C)CC4)c3)c3ccccc23)c1	0.7	nt	nt	nt	0.9%	-2
COCC1CCCCN1C(=O)c1ccc(OC)c(OC2CCN(C(C)C)CC2)c1 (centres undefined)	5.3	-0.2	nt	-3	-0.4%	25
CCc1ccc(N2C(=O)CC(N3CCN(Cc4ccc5c(c4)OCO5)CC3)C2=O)cc1 (centres undefined)	0.1	0.9	0	-2	0.8%	5
COc1ccc(-c2cc(C(F)(F)F)n3nc(C(=O)N4CCCCC4)cc3n2)cc1	-0.2	-0.3	12	2	-0.9%[38.3 µM]	13
CCCCn1c(N)c(N(CC)C(=O)c2ccc(N3CCCC3=O)cc2)c(=O)[nH]c1=O	-0.6	-3.3	10	-2	0.9%	0
CCC(C)C(N)C1=NC(C(=O)N[C@@H](CC(C)C)C(=O)N[C@H](CCC(=O)O)C(=O)N[C@H](C(=O)N[C@H]2CCCCNC(=O)[C@H](CC(N)=O)NC(=O)[C@@H](CC(=O)O)NC(=O)[C@H](Cc3cnc[nH]3)NC(=O)[C@@H](Cc3ccccc3)NC(=O)[C@H]([C@@H](C)CC)NC(=O)[C@@H](CCCN)NC2=O)[C@@H](C)CC)CS1 (some centres undefined)	0.1	-4.4	-12	-4	2.0%	-1
COc1ccc(-c2csc(NC(=O)C3CCCO3)n2)cc1 (centres undefined)	0.0	0.3	2	-1	18%[38.3 µM]	9
COCCCN1C(=O)c2[nH]nc(-c3cc(C)cc(C)c3O)c2C1c1ccc(O)c(OC)c1 (centres undefined)	0.1	-1.7	-3	-2	0.5%[38.3 µM]	-4
CCN(CC)S(=O)(=O)c1ccc(NCCc2ccccn2)nc1	0.6	-6.6	0	9	-0.8%	-4
COc1ccc(-c2noc(CCC(=O)O)n2)cc1	0.2	-5.7	5	5	2.2%	-11
CCC(C)Oc1nc2c(c(=O)n(C)c(=O)n2C)n1C (centres undefined)	-0.4	2.9	7	6	1.4%	-15
O=C(NCc1cc([N+](=O)[O-])ccc1O)c1cc(-c2ccncc2)nc2ccccc12	-0.8	-5.8	-27	-15	-0.9%	-2
CC1CN(C(=O)c2cccc(S(=O)(=O)Nc3cc(Cl)ccc3Cl)c2)CC(C)O1 (centres undefined)	0.3	1.9	-18	?	0.5%	12
CCOC(=O)[C@H]1[C@H]2COc3ccc(C)cc3[C@@H]2N2C(=O)c3cc(Br)ccc3NC(=O)[C@@]12C	0.5	-2.6	-1	-10	2.0%	-2
COc1cc(C(=O)N(Cc2cc3ccccc3[nH]c2=O)CC2CCCO2)cc(OC)c1OC (centres undefined)	-0.4	4.1	-2	2	0.4%[38.3 µM]	-2
COc1ccc(CNC(=O)[C@H](CCSC)NC(=O)N2CCn3c2nc2ccccc23)cc1	1.1	5.0	-9	-2	0.8%	9
CC(C)(O)C(=O)NNC(=S)Nc1cccc(C(F)(F)F)c1	1.3	3.7	2	13	-0.4%	26
Cn1nc(C(C)(C)C)cc1C(=O)NCc1ccc2c(c1)OCO2	1.2	4.5	-3	0	-0.6%	-3
Cc1ccccc1-c1nc(C(=O)NCC2CCCO2)cc2c1[nH]c1ccccc12 (centres undefined)	nt	2.9	1	-13	0.1%	nt
CCOc1ccccc1NC(=O)C(CC)Sc1nc2ccncc2[nH]1 (centres undefined)	0.4&1.2	1.0	nt	-2	-1.3%&-0.7%	11&-8
CCC(C)NC(=O)CC(NS(=O)(=O)c1ccc(Cl)cc1)c1ccco1 (centres undefined)	0.2	0.1	0	22	-2.3%	-4
CN(C)C(=O)COc1ccc2c3c(c(=O)oc2c1)CCCC3	-1.2	4.8	nt	0	2.6%	5
CSc1cccc(NC(=O)Cn2c(=O)n(Cc3ccccc3)c(=O)c3sc4ccccc4c32)c1	-0.4	nt	nt	nt	2.7%	-5
CC(NC(=O)c1ccccc1NC(=O)CSc1nnnn1C)c1ccccc1 (centres undefined)	-0.2	-1.4	-4	1	-0.4%	18
CC(=O)c1ccc(OCc2cc(C(=O)N(C)C3CCOC3)no2)cc1 (centres undefined)	0.9	1.6	-3	1	-0.4%	-7
